From PubChem BioAssay
GLA inh pH 4.5: blocks human alpha-galactosidase A at pH 4.5; activity change, negative = inhibition, % at 105 µM; purified enzyme, 4-MU-alpha-Gal fluorescence, pH 4.5; 230,000 tested, under 10 active; P06280; inconclusive = small, poorly fitted or top-dose-only inhibition, or a rising curve; inactive = flat fitted curve, though single readings scatter; no compound was filed as active;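 note: 0% = full activity with enzyme and -100% = basal without enzyme; dose as in the result columns while the protocol names 77 µM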
Rango-impB inh: inhibitors of Rango-importin beta complex formation; Q14974; Rango CFP/YFP FRET sensor + importin beta, 45 min; Potency, µM (top dose mostly 92.2 µM), for inactives: at the highest dose inhibition of complex formation; 0.031% of 340,000 active; active = rising FRET ratio curve, often small or poorly fitted; inconclusive = mostly compound fluorescence or quenching in the first reads; inactive = flat curves in all reads;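 note: potency is the fitted concentration of half-maximal effect; 0% = DMSO wells and 100% = buffer wells lacking importin beta; nearly all actives have a fitted effect of over 15% in size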
Target sequence (Q14974 whole entry, looked up): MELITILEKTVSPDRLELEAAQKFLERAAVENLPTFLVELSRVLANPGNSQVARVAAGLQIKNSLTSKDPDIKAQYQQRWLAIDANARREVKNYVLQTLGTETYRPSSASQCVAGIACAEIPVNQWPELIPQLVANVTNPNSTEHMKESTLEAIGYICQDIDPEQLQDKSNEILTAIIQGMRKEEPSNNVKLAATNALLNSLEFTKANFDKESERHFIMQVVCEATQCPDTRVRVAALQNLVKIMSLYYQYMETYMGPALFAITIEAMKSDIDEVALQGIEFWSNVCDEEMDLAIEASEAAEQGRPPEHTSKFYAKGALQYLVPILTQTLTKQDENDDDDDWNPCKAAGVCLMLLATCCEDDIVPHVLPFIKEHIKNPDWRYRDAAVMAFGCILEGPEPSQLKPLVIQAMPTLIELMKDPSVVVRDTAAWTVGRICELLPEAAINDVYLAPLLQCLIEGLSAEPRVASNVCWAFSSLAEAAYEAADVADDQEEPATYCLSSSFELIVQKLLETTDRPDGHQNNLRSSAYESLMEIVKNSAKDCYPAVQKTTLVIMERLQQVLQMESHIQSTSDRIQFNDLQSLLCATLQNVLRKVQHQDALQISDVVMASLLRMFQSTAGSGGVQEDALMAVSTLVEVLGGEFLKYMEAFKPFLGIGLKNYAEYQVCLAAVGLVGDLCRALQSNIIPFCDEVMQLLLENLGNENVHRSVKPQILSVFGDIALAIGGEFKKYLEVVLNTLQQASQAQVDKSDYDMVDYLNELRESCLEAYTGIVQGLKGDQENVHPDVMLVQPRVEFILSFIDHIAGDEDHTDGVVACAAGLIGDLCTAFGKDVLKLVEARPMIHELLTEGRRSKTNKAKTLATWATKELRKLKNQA
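FRET biosensor Rango (snurportin 1 IBB between N-terminal EYFP and C-terminal Cerulean), 50 nM in PBS/1 mM DTT/0.02% Tween-20/0.1% BSA, preincubated 5 min RT with compound; 0.125 microM importin beta added, 45 min RT, CFP/YFP FRET ratio read.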
miR-21 FLuc: raises the signal of a miR-21 reporter; 340,000 tested, under 10 active; Potency, µM (doses to about 38.3 µM), for the others: top-dose reporter change, positive = more light; AID 2288; HeLa miR-21 FLuc reporter, luciferase, 48 h; active = well fitted rising curve with a large enough effect; inconclusive = small, poorly fitted or top-dose-only effect; inactive = no such curve, though single readings can be large or run the other way;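 note: % of control where 0% means no effect; miR-21 action dims this reporter so a rising signal means less miR-21 action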
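HeLa cells endogenously expressing miR-21, stably carrying CMV-driven firefly luciferase with a downstream miR-21 binding site, 2000 cells/well. Titrations up to approximately 40 uM, 48 hours; luciferase luminescence read.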
Rango release inh: inhibition of RanGTP-driven Rango-importin beta dissociation. Potency, µM (titrated, usually from 46.1 µM), for inactives: at the top dose activity change, negative = inhibition. O95149+P62826. 0.071% of 340,000 active. Biochemical FRET Rango-importin beta, RanGTP-induced dissociation; active means falling FRET ratio curve, often poorly fitted, with flat reads before Ran was added; inconclusive means other falling curves, or compound fluorescence or quenching; inactive means flat or rising ratio curve;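 note: potency is the fitted concentration of half-maximal effect; % of control where 0% means no effect; nearly all actives have a fitted effect of over 45% in size; -100% = wells without RanGTP and RCC1; the record marks most hits as doubtful in a second field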
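Compounds preincubate 5 min with complex of recombinant Rango and importin beta in PBS with 1 mM DTT. Ran (0.6 uM) loaded with 2 mM GTP plus 0.2 uM RCC1 starts dissociation; FRET is recorded 45 min later.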
Numbers without * were called inactive; ? = inconclusive; . = no result given; & = joins results of further samples. Not all compounds are listed; count on the stated rates, not on these rows.

cpd	GLA inh pH 4.5	Rango-impB inh	miR-21 FLuc	Rango release inh	Structure
1	.	0.6%	-6%	-9%	CCOC(=O)C1=C(N)Oc2ccc3ccccc3c2C1c1ccc(O)cc1 (stereo not given)
2	-17	?	-50%	?	CN1/C(=C\C(=O)c2cccnc2Cl)C(C)(C)c2ccccc21
3	.	-0.5%	10%	-11%	CSc1ccc(S(=O)(=O)N2CCC(C(=O)NCC3CCCO3)CC2)cc1 (stereo not given)
4	-5	?	-5%	-5%	Cc1ccc(NC(=O)/C(=C/c2ccco2)c2ccccc2)c(C)c1
5	.	0.4%	-70%	2%	COc1ccccc1OCC(=O)Nc1ccc2c(c1)OCO2
6	.	1.9%	-23%	-13%	CCc1ccc(CNC(=O)c2ccc(NC(=O)C3=CSCCO3)cc2)cc1
7	-6	-5.2%	-1%	-9%	Cc1cc(NC(=O)NC2CC(=O)N(c3ccc4c(c3)OCCO4)C2)no1 (stereo not given)
8	4	2.5%	9%	14%	C=CCn1c[n+](CC(=O)c2ccc(Br)s2)c2ccccc21
9	.	-0.4%	1%	-3%	Cc1ccc(C)c(NC(=O)c2cc(S(=O)(=O)N3CCOCC3)cn2C)c1
10	0	-1.4%	-19%	1%	CCn1nnnc1SCC(=O)Nc1ccc2c(c1)OCO2
11	6	1.2%	-58%	1%	COc1cccc(-c2nn(-c3ccccc3)cc2CNC(C)Cn2cncn2)c1 (stereo not given)
12	-3	0.7%	-8%	22%	Cc1cccc(-c2nc3ccccc3c(=O)n2NC(=O)c2cccnc2Cl)c1
13	.	0.1%	-1%	0%	CCOC(=O)C1CCN(c2ccc([N+](=O)[O-])cc2S(=O)(=O)N2CCOCC2)CC1
14	.	4.3%	-36%	0%	O=C(CSc1nnc(-c2ccc(O)cc2)o1)Nc1ccccc1
15	.	4.9%	0%	0%	O=C(Nc1ccc(F)cc1)C1CCN(S(=O)(=O)c2ccc3[nH]c(=O)oc3c2)CC1

Two entries from above, with each value named:
9: Cc1ccc(C)c(NC(=O)c2cc(S(=O)(=O)N3CCOCC3)cn2C)c1
  GLA inh pH 4.5: . | Rango-impB inh: -0.4% | miR-21 FLuc: 1% | Rango release inh: -3%
2: CN1/C(=C\C(=O)c2cccnc2Cl)C(C)(C)c2ccccc21
  GLA inh pH 4.5: -17 | Rango-impB inh: ? | miR-21 FLuc: -50% | Rango release inh: ?

Additional compounds
cpd	GLA inh pH 4.5	Rango-impB inh	miR-21 FLuc	Rango release inh	Structure
16	.	4.2%	-1%	2%	CCOC(=O)N1CCN(C(=O)CNC(=O)C23CC4CC(CC(C4)C2)C3)CC1
17	.	-2.3%	-7%	9%	COc1cc(/C=N/NC(=O)c2c(C)nc3ccc(Cl)cn23)cc(OC)c1OC
18	-3	-0.2%	-14%	3%	CCCN(Cc1cc2cc(C)ccc2[nH]c1=O)C(=O)c1cccc([N+](=O)[O-])c1
19	-2	-5.8%	-5%	?	Cc1cc(C)nc(SCc2ccc(C(=O)N/N=C3\CCCC(=O)C3)cc2)n1
20	-2	2.2%	-60%	-2%	O=C(Cc1ccc2c(c1)CCCC2)Nc1ccc2ccccc2c1
21	-9	-1.5%	1%	-6%	Cn1cnnc1Sc1ccc(C(=O)NCCC(c2ccccc2)c2ccccc2)cc1[N+](=O)[O-]
22	7	1.0%	7%	2%	Nc1nc2nccc(-c3cccnc3)n2n1
23	1	0.7%	-2%	-13%	O=C(C1=C(O)C(=O)N(CCc2ccccc2)C1c1ccncc1)c1cc2ccccc2o1 (stereo not given)
24	-10	3.6%	-2%	-8%	O=C(NCc1ccco1)c1ccc(CS(=O)(=O)Cc2ccc(Cl)cc2)o1
25	1	2.4%	0%	8%	S=c1[nH]nc(Cc2cccs2)n1-c1cccc2ccccc12
26	-6	-1.6%	-5%	2%	Cc1c(NC(=O)c2ccccc2)c(=O)n(-c2ccccc2)n1C
27	.	-2.0%	-53%	-6%	Cc1nc(-c2cc(-c3ccc(Cl)cc3)no2)cs1
28	-7	1.8%	-4%	18%	CN(C)C(=O)N1CCC(C(=O)NCc2cccs2)CC1
29	3	2.3%	-8%	3%	CC(C)(C)C(=O)NC(NC(=S)Nc1ccc(S(N)(=O)=O)cc1)C(Cl)(Cl)Cl (stereo not given)
30	.	-7.6%	.	1%	CCC(C)(C)C1CCc2[nH]nc(C(=O)NCC3CC3)c2C1 (stereo not given)
31	11	-5.1%	-4%	-2%	Cc1cc([N+](=O)[O-])nn1Cc1ccc(F)cc1
32	.	9.5%	-2%	?	C[C@H](NC(=O)c1ccccc1Cl)C(=O)NCCc1ccc(S(N)(=O)=O)cc1
33	.	4.0%	0%	-4%	O=S(=O)(NCc1ccc(C(F)(F)F)cc1)c1ccc(-n2cnnn2)cc1
34	.	-2.2%	.	-10%	Cc1nnc2n(-c3ccccc3)c(=O)c3ccccc3n12
35	-4	?	16%	?	O=C1c2ccccc2-c2onc3ccc(N4CCCC4)c1c23
36	.	-4.1%	0%	20%	COc1cc(OC)cc(C(=O)N2CCN(c3ccccn3)CC2)c1
37	.	-4.6%	.	15%	CCN(CC)c1ccc(S(=O)(=O)N2CCOCC2)cc1NC(=O)C1CC1
38	.	-4.3%	.	-5%	CN1C(=O)N(CC(=O)N2CCN(c3ccccc3F)CC2)C(=O)C12CCCCC2
39	-1	?	0%	4%	COc1ccc(Br)cc1CNC(=O)CCc1nc(-c2ccc(C)cc2)no1
40	.	-4.1%	6%	7%	O=C(NCc1ccccc1F)C1CCN(S(=O)(=O)c2ccccc2)CC1
41	.	-2.9%	-3%	-1%	CCOc1ccccc1CN1CCNC(=O)C1CC(=O)N(C)C1CCOCC1 (stereo not given)
42	5	-1.2%	-54%	-1%	COc1ccc2[nH]c3c(=S)nc[nH]c3c2c1
43	0	0.6%	21%	1%	COc1ccccc1C(=O)NCC1CCN(c2ccc(S(=O)(=O)N3CCOCC3)cc2)CC1
44	-7	5.4%	-11%	-4%	CCn1nnnc1SCC(=O)N1CCCc2ccccc21
45	-3	-0.2%	-3%	7%	CCn1c(SCC(=O)N2CC(=O)Nc3ccccc32)nnc1-c1ccoc1C

The final 6 compounds of the section before lead into the next:
cpd	GLA inh pH 4.5	Rango-impB inh	miR-21 FLuc	Rango release inh	Structure
40	.	-4.1%	6%	7%	O=C(NCc1ccccc1F)C1CCN(S(=O)(=O)c2ccccc2)CC1
41	.	-2.9%	-3%	-1%	CCOc1ccccc1CN1CCNC(=O)C1CC(=O)N(C)C1CCOCC1 (stereo not given)
42	5	-1.2%	-54%	-1%	COc1ccc2[nH]c3c(=S)nc[nH]c3c2c1
43	0	0.6%	21%	1%	COc1ccccc1C(=O)NCC1CCN(c2ccc(S(=O)(=O)N3CCOCC3)cc2)CC1
44	-7	5.4%	-11%	-4%	CCn1nnnc1SCC(=O)N1CCCc2ccccc21
45	-3	-0.2%	-3%	7%	CCn1c(SCC(=O)N2CC(=O)Nc3ccccc32)nnc1-c1ccoc1C
46	-3	4.1%	-10%	-7%	CCOC(=O)C1CCCN(CCC(C)c2ccccc2)C1 (stereo not given)
47	-3	-4.6%	4%	0%	CC(C)n1c(SCC(=O)Nc2nc3c(s2)CCCC3)nc2c1c(=O)n(C)c(=O)n2C
48	.	-2.6%	.	-1%	CN(CC(=O)Nc1c(Cl)cccc1Cl)C(=O)C1CC(=O)N(Cc2ccccc2)C1 (stereo not given)
49	-3&-2&-12	-2.1%&1.0%	-16%&-4%	-7%&-5%	CC(N)C12CC3CC(CC(C3)C1)C2 (stereo not given)
50	?	1.0%	1%	-13%	NS(=O)(=O)c1cc2c(cc1Cl)NC(Cc1ccccc1)NS2(=O)=O (stereo not given)
51	6	.	-5%	.	Cc1ccc(-n2c(C)c3c(C)nnc(C)c3c2C)cc1
52	2	5.7%	5%	-5%	CCc1nc2sc(C(=O)O)c(N)c2c2c1CCCC2
53	.	-1.6%	.	12%	CC(OC(=O)CCCc1c[nH]c2ccccc12)C(=O)Nc1ccc(S(N)(=O)=O)cc1 (stereo not given)
54	1	0.1%	-28%	19%	CCn1c(C)nc2cc(C(=O)NNC(=S)Nc3ccc(Cl)cc3Cl)ccc21
55	6	1.5%	-4%	2%	Cc1ccc(S(=O)(=O)N/N=C/c2cn(C)nc2C)cc1
56	-1	1.2%	-27%	1%	CCCCc1nnc(NC(=O)C2CCCO2)s1 (stereo not given)
57	-4	2.3%	-4%	-4%	CN(C1CCCCC1)S(=O)(=O)c1ccc(NC(=O)CCC(=O)O)cc1
58	-1	2.9%	25%	-11%	Cc1nn2c(NCc3ccccn3)c3c(nc2c1-c1ccccc1)CCC3
59	-4	-2.2%	-2%	-9%	O=C(c1c(F)cccc1F)N(Cc1ccccn1)C1CCCC1
60	5	0.1%	-1%	9%	CCOc1cc(NC(=S)NCCCN2CCOCC2)c(OCC)cc1NC(=O)c1ccc(OC)cc1
61	.	3.0%	28%	3%	CC(C)Oc1ccc(C(=O)/C=C2/C(=O)Nc3ccccc32)cc1
62	-2	-0.2%	-28%	?	CCCCCC(=O)Nc1ccc(Cl)cn1
63	-9	-4.4%	-3%	9%	CN(C)S(=O)(=O)c1ccc(NC(=O)COC(=O)Cn2[nH]c(=O)c3ccccc3c2=O)cc1
64	.	?	0%	-12%	COc1ccc(C(C(=O)NCC2CCCO2)N(Cc2ccco2)C(=O)c2snc(C(N)=O)c2N)cc1OC (stereo not given)
65	0	-0.1%	20%	1%	O=C(Nc1nc2ccccc2[nH]1)c1ccccc1
66	-4	-1.7%	1%	-2%	CCOC(=O)NC1CCS(=O)(=O)C1 (stereo not given)
67	-13	-1.4%	-1%	1%	CN(Cc1ccccc1)CC(O)COc1ccc(CNCc2ccc(Cl)s2)cc1 (stereo not given)
68	.	-2.1%	-3%	13%	COc1cc(OC)cc(C(=O)Nc2ccc(S(=O)(=O)Nc3ccccn3)cc2)c1
69	4	-0.1%	-1%	-4%	COc1cc(CN2CCN(C(=O)CC(C)C)CC2)cc(OC)c1OC
70	.	0.0%	0%	-11%	C/C(=N\NC(=O)c1nnn(-c2nonc2N)c1C)c1ccc(-c2ccccc2)cc1
71	1	5.5%	-2%	-2%	CCOC(=O)C1CCCN(C(=O)CN2C(=O)C(CC)Oc3ccc(C)cc32)C1 (stereo not given)
72	-1	-0.2%	-3%	-12%	COc1ccc(NS(=O)(=O)c2ccc(NC(=O)C(C)(C(F)(F)F)C(F)(F)F)cc2)nn1
73	2	8.0%	-3%	0%	CC(=O)OC1COC(n2ccc3ccccc32)C(OC(C)=O)C1OC(C)=O (stereo not given)
74	7	?	-8%	18%	O=C(CN1C(=O)NC2(CCCCCCC2)C1=O)N1CCOCC1
75	1	-0.1%	0%	7%	Cc1ccc(CSc2nnc(-c3cccnc3)n2N)cc1
76	.	-0.2%	.	-10%	Cc1c(C(=O)N2CCCC(C(F)(F)F)C2)oc2ccccc12 (stereo not given)
77	4	-1.3%	-48%	-3%	Cc1nnc(Oc2ccccc2F)c2ccccc12
78	4	-0.4%	-8%	-11%	CCn1c(SCC(=O)Nc2cc(C)on2)nc2c(c1=O)SC(C)C2 (stereo not given)
79	.	0.1%	.	6%	O=C1c2ccccc2[C@@H]2C[C@H]3O[C@H]3CCN12
80	2	1.5%	-8%	-5%	O=C(Nc1ccc2c(c1)OCCO2)c1cccc(S(=O)(=O)N2CCCCC2)c1
81	.	0.3%	.	-14%	COc1ccc(C2=NOC(Cn3nc(C(=O)NCc4ccccc4OC)cc3-c3ccccc3)C2)cc1 (stereo not given)
82	.	1.1%	.	20%	CC1(C)O[C@H]2CC(=O)OC[C@]23[C@H]2CC[C@@]4(C)[C@H](c5ccoc5)OC(=O)[C@H]5O[C@]54[C@]2(C)[C@@H](O)C[C@@H]13
83	.	0.9%	.	2%	Cc1cccc(CNc2ncnc3ccc(-c4ccc5c(c4)OCCO5)cc23)c1
84	3	4.0%	-6%	-13%	O=C1c2ccccc2-c2ncnc3c(N4CCOCC4)cc(N4CCOCC4)c1c23
85	.	0.3%	-1%	-24%	O=C(CSc1n[nH]c(-c2ccccn2)n1)Nc1ccccc1
86	-9&-16	.	3%	.	CCC/C=C(\CCC)C(NS(=O)(=O)c1ccc(C(F)(F)F)cc1)c1ccccc1 (stereo not given)
87	.	-4.8%	0%	-13%	CCCNS(=O)(=O)c1cc2c3c(c1)CCN3C(=O)CC2
